Compound activity deposited in PubChem BioAssay by ICCB-Longwood Screening Facility, Harvard Medical School.
PV pol inh: inhibitors of poliovirus RNA polymerase binding and polymerization | P03300 | poliovirus polymerase elongation, fluorescence polarization; stronger effect = lower value | % elongation, % (compound at 16.7 µg/mL) | 150,000 tested, 0.66% active | AID 588519; in the data active = % elongation below about 90%; note: some results filed as inactive read as strong as hits
Target sequence (P03300 1749-2209 limits assumed): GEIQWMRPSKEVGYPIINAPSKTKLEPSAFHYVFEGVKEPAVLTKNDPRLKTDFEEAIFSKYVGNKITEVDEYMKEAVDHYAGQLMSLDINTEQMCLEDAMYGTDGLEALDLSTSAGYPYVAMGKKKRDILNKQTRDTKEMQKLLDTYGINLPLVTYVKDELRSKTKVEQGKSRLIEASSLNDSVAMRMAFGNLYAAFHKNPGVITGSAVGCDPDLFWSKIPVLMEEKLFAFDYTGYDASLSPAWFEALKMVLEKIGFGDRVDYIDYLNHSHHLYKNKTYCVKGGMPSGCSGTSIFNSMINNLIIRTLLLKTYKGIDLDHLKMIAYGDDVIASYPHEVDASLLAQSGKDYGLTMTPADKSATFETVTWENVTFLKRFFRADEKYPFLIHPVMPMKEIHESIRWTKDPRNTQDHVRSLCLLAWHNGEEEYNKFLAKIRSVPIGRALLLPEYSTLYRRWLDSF
MenB inh: blocks the Mycobacterium tuberculosis MenB enzyme; P9WNP5; MenB enzyme assay, absorbance read-out; some hits fall short of the stated cut; inhibition, %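 (about 12 µg/mL by stock and volumes)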; 100,000 tested, 0.43% active;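 active = mean of two replicates above 30%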;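 note: 0% = no compound and 100% = wells with inactive enzyme; the first replicate is given; strong numbers were not always called active; inactives centre near -10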
Target sequence (P9WNP5 whole entry, looked up): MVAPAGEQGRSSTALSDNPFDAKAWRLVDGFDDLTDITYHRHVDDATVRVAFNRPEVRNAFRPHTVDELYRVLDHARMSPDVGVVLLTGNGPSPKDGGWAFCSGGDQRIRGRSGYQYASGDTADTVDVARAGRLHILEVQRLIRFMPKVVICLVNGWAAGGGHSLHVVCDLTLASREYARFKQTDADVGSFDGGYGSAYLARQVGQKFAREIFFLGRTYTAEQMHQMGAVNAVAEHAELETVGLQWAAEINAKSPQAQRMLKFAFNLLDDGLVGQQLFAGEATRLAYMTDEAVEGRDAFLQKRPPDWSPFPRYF
MbtI inh: inhibitors of Mycobacterium tuberculosis siderophore enzyme MbtI. P9WFX0. purified MbtI enzyme, fluorescence intensity read-out. inhibition, %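 (about 17 µg/mL by stock and volumes)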. 100,000 tested, 0.89% active. AID 493033;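 active = above 50% in both replicates, above 80% if mildly self-fluorescent; inactive = the rest, strongly fluorescent compounds included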;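 note: 0% = mean of negative and 100% = mean of positive controls; one replicate is shown; some compounds called inactive have numbers as strong as hits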
PV pol inh intensity: second read-out of PV pol inh, no call of its own (marks repeat the call); % elongation; measured here: total intensity read-out; formula for this scale not given here;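 total fluorescence in place of polarization; lower means less elongation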
Numbers without * were called inactive; i = inactive; x = not tested or not shown; & = joins results of further samples.

The line under a structure holds: MenB inh, MbtI inh, PV pol inh, PV pol inh intensity
CCc1ccc(NC(=O)CSc2nnc(C(C)C)n2CC)cc1
  13, -5, 99, 101
COc1ccc(-n2c(C)cc(-c3csc(NC(=O)CC(C)(C)C)n3)c2C)cc1
  -10, -1, x, x
CCc1ccccc1NC(=O)CN(C)C(=O)Cn1cnc2ccc(Cl)cc2c1=O
  -4, -9, 104, 108
Cc1ccc2c(c1)-c1c(cnn1CC(=O)Nc1cccnc1Cl)CO2
  4, -5, 103, 102
NCCc1c(C(=O)O)[nH]c2ccc(Br)cc12
  -7, x, 108, 110
Cc1cc(C(=O)OCC(=O)N2CCCCC2)c(C)n1-c1ccccc1
  x, -10, 101, 99
Nc1ccc(CC2C(=O)Nc3ccccc32)cc1 (configuration not stated)
  -21, -1, 98, 97
Oc1ccccc1CN(Cc1ccco1)CC(O)COc1ccc(Cl)cc1Cl (configuration not stated)
  -45, -13, 102, 110
CC1CN(C(=O)CC(C)c2ccccc2)CC(C)O1 (configuration not stated)
  8, -13, 100, 102
COc1ccc(N2CCN(C(=O)C3c4ccccc4C(=O)N4CCc5cc(OC)c(OC)cc5C34)CC2)cc1 (configuration not stated)
  -4, 6, 99, 100
COc1cc(/C=C2\SC(=O)N=C2N)ccc1O
  -175, 32, 98, 101
COc1nc(OC)nc(N2CCN(c3cccc(C(F)(F)F)c3)CC2)n1
  -10, 24, 102, 102
CCN(CC)c1ncnc(Cl)c1Cc1ccc(OC)cc1
  -16, 0, 101, 102
COC(=O)[C@@H](Cc1c[nH]c2ccccc12)NC(=O)c1ccc2c(c1)OCO2
  0, -5, 106, 109
CC(C)(C)NC(=O)COc1ccc(CO)cc1
  -65, -6, 100, 103
COc1ccc(-c2ccc(CNCCN3CCOCC3)o2)cc1Cl
  33*, 3, 99, 109
COc1ccc(Nc2nccc(-c3cccc(C#N)c3)n2)cc1
  12, -4, 100, 104
Cc1sc2nc(SCc3cc(=O)[nH][nH]3)n(Cc3ccco3)c(=O)c2c1C
  -56, 4, 99, 103
O=C(CSc1ccc2ccccc2c1)Nn1cnnc1
  x, -9, 103, 108
Cc1ccc2nc(SCC(=O)NC(C)C)nc(=O)n2c1
  -15, 17, 105, 97

(further entries)
The line under a structure holds: MenB inh, MbtI inh, PV pol inh, PV pol inh intensity
O=C(CSc1cccc[n+]1[O-])c1ccc2c(c1)-c1ccccc1C2
  x, 57, 103, 104
COc1cc(/C=C2\N=C(c3ccccc3)OC2=O)cc(Br)c1OCc1c(C)no[n+]1[O-]
  -22, -13, 97, 106
COc1ccc2c(CC(=O)OCC(=O)c3cc(C)n(-c4ccc5c(c4)OCO5)c3C)coc2c1
  -27, 12, 105, 103
CCOC(=O)c1ccc(N2C(=O)CC(SCC(=O)Nc3ccc(S(N)(=O)=O)cc3)C2=O)cc1 (configuration not stated)
  -21, 29, 105, 105
O=C(c1ccc2snnc2c1)N1CCCCC1
  -7, x, 107, 99
OCCSc1c(F)c(SCCO)c(SCCO)c(F)c1SCCO
  -3, 1, 99, 101
CCC1CCCCN1C(=O)COC(=O)c1nc(Cl)c(Cl)c(N)c1Cl (configuration not stated)
  -5, 6, 105, 115
COc1cccc2cc(-c3csc(Nc4cccc(C(F)(F)F)c4)n3)c(=O)oc12
  -28, -12, 104, 108
O=C(Nc1ccc(Cn2nnc3ccccc32)cc1)c1ccco1
  3, i, 99, 103
Cc1cc(C)c2c(n1)OC(N1CCOCC1)(C(F)(F)F)CC2=O (configuration not stated)
  -23, -4, 102, 106
CC(C)CN(CC(C)C)c1ncnc2c1cnn2-c1ccc(Cl)cc1
  -7, -6, 105, 108
CSC1=NCCN1C(=O)C1CCCCC1
  -7, 2, 99, 102
CCCCCCCCCCCCCCCCOC[C@@H](COP(=O)([O-])OCC[N+](C)(C)C)OC(C)=O
  1, -11, 102&100, 104&104
O=C1NC(=Nc2ccc(F)cc2)S/C1=C/c1ccc(N2CCCC2)o1
  -20, x, 43, 246
COc1ccc(S(=O)(=O)Nc2ccccc2C(=O)NN2CCOCC2)cc1OC
  1, -9, 99, 103
O=C(O)C1C(c2ccccc2)C(C(=O)N2CCOCC2)C1c1ccccc1 (configuration not stated)
  -24, x, 107, 108
COC(=O)[C@@H](NC(=O)c1ccc2c(c1)S(=O)(=O)c1ccccc1C2=O)C(C)C
  5, -34, 104, 94
CCN(CC)C(=Nc1ccccc1)Nc1ccccc1
  -28, -2, 103, 99
COc1cn(-c2ccccc2)nc1C(=O)OC(C)C(N)=O (configuration not stated)
  -4, 102, 101, 108
O=C1C(c2ccncc2)N(CCC2=CCCCC2)C(=O)CN1C1CCCCC1 (configuration not stated)
  -9, -5, 100, 102

Next section, starting with the last 6 of the part before.
The line under a structure holds: MenB inh, MbtI inh, PV pol inh, PV pol inh intensity
COc1ccc(S(=O)(=O)Nc2ccccc2C(=O)NN2CCOCC2)cc1OC
  1, -9, 99, 103
O=C(O)C1C(c2ccccc2)C(C(=O)N2CCOCC2)C1c1ccccc1 (configuration not stated)
  -24, x, 107, 108
COC(=O)[C@@H](NC(=O)c1ccc2c(c1)S(=O)(=O)c1ccccc1C2=O)C(C)C
  5, -34, 104, 94
CCN(CC)C(=Nc1ccccc1)Nc1ccccc1
  -28, -2, 103, 99
COc1cn(-c2ccccc2)nc1C(=O)OC(C)C(N)=O (configuration not stated)
  -4, 102, 101, 108
O=C1C(c2ccncc2)N(CCC2=CCCCC2)C(=O)CN1C1CCCCC1 (configuration not stated)
  -9, -5, 100, 102
N#C/C(=C/c1ccc(Sc2nc3ccccc3[nH]2)o1)C(=O)N1CCOCC1
  -37, 3, 121, 130
CC(NS(=O)(=O)c1ccc(Br)cc1)C(c1cccs1)N1CCOCC1 (configuration not stated)
  1, -7, 101, 99
CN(C1CCCCC1)S(=O)(=O)c1ccccc1NC(=O)c1ccc[nH]c1=O
  -2, -44, 99, 108
CCOC(=O)N1CCC(NC(=O)CCc2nc(C3=CCN(C)CC3)no2)CC1
  11, 13, 102, 104
O=C(Cc1cccs1)N/N=C/c1ccc(C(=O)O)cc1
  -13, 15, 104, 102
C=CCNC(=O)c1ccc(NC2=NC3CS(=O)(=O)CC3S2)cc1 (configuration not stated)
  -9, 0, 103, 103
COc1ccccc1NC(=O)Cn1c(=O)c(N(C)C)c(N)n(C)c1=O
  -13, -10, 104, 110
CCOC(=O)C1=C(NC(=S)Nc2ccccc2)CC2=C1CCCC2
  -12, x, 101, 99
CNS(=O)(=O)c1cn(CC(=O)Nc2ccccc2)cc1S(=O)(=O)NC
  12, -6, 100, 101
COc1ccc(N(C(=O)C(C)C)S(=O)(=O)c2cccs2)cc1
  4, -10, 99, 103
COc1ccc(NC(=O)CN(C)C(=O)c2ccc3c(c2)NC(=O)CS3)cc1
  -7, -7, 106, 108
Cc1cc(C)c(C#N)c(SCCC(=O)Nc2nc(-c3ccccc3)ns2)n1
  1, -8, 104, 109
O=S(=O)(c1ccccc1)c1ccc(N2CCCCC2)cc1
  -16, -336, 100, 102
O=C1CC(SCc2nc3ccccc3[nH]2)C(=O)N1c1ccc(F)cc1 (configuration not stated)
  -11, 17, 103, 103
Nc1nc2ccc(C(=O)O)cc2s1
  -17, 5, 103, 103
O=C1NCCN1CCN1C(=O)c2ccccc2NC1c1ccccc1 (configuration not stated)
  3, -45, 115, 119
O=C(CCN1C(=O)c2ccccc2C1=O)NCc1ccccc1
  16, 0, 95, 103
O=C(c1cccs1)N1CCN(C(=O)c2cccs2)CC1
  4, -13, 102, 100
COCCNC(=O)c1cc(-c2cccnc2)nc2ccc(S(=O)(=O)N3CCCCCC3)cc12
  2, -19, 102, 98
N#CSc1ccc(N)c(Br)c1
  25*, 49, 75*, 83*

Other structures follow.
The line under a structure holds: MenB inh, MbtI inh, PV pol inh, PV pol inh intensity
O=C(CN1C(=O)NC(c2ccccc2)(c2ccccc2)C1=O)c1ccc[nH]1
  -9, 18, 115, 123
O=c1/c(=C\c2ccc(F)cc2)sc2n1CCN=2
  -7, x, 103, 107
CC1Cn2cc(C(=O)N3CCN(Cc4ccc5c(c4)OCO5)CC3)c(=O)c3c(Cl)ccc(c32)O1 (configuration not stated)
  -1, 97, 100, 103
C=CCN1C(=O)S/C(=C\c2ccc(CC)s2)C1=O
  -86, 0, 98, 101
O=C(c1ccccc1)N1CCC(C2CCNCC2)CC1
  -48, -9, 106, 104
COc1ccc(-c2cc(N)n(CCC#N)n2)c(OC)c1
  12, 24, 98, 101
COc1ccc2cc(CCNS(=O)(=O)c3ccccc3)c(=O)[nH]c2c1
  16, 25, 100, 103
O=C(NC1CCCCCCC1)c1cc(-c2ccc(Cl)cc2)n[nH]1
  -27, -11, 104, 102
O=S(=O)(NC1Cc2ccccc2C1N1CCCC(C(F)(F)F)C1)c1ccccc1 (configuration not stated)
  12, 0, 98, 101
CCC(C)c1ccccc1NC(=O)C1CSC2(C)CCC(=O)N12 (configuration not stated)
  -37, -11, 107, 106
CS(=O)(=O)c1ccc(Cl)c(C(=O)O)c1
  x, -5, 101, 100
CCOc1ccccc1CN1C(=O)c2ccccc2C1C(=O)NCCCN1C(C)CCCC1C (configuration not stated)
  3, -9, 102, 108
O=C(Cn1c2[n+](c3ccccc31)CC(O)CS2)N1CCCCC1 (configuration not stated)
  1, -5, 100, 99
Cc1cccc(C(=O)NCCN2C(=O)S/C(=C\c3ccc(F)cc3)C2=O)c1C
  x, -2, 105, 108
CCN(CC)c1ccc2cc(S(=O)(=O)c3ccc(Cl)cc3)c(=O)oc2c1
  -40, 7, 114, 121
COc1ccc(S(=O)(=O)NCCOc2ccccc2)cc1-n1cnnn1
  -26, -5, 102, 102
CCOc1ccc(C(=O)/C=C2/NCCNC2=O)cc1
  -199, -4, 101, 101
CN(CC(=O)C1=C(c2ccc(Br)cc2)C(=O)c2ccccc2C1=O)c1ccccc1
  -1, 1, 101, 103
CC(C)(C)S(=O)(=O)c1ccsc1
  24, -4, 100, 100
COc1ccc(/C=N\N2CCN(c3ccccc3)CC2)cc1
  -16, -2, 105, 102

(listing goes on)
The line under a structure holds: MenB inh, MbtI inh, PV pol inh, PV pol inh intensity
Cc1ccsc1C(=O)Nc1sc2c(c1C#N)CCCC2
  -58, 21, 99, 103
NC(=NCc1ccc(Cl)cc1Cl)NC(=O)c1nc(Cl)c(N)nc1N
  x, i, 97, 99
CC1CN(C)C(C)CC1NCCc1ccccc1 (configuration not stated)
  2, -5, 102, 105
N=C1/C(=C\c2cccn2-c2ccc3ccccc3c2)C(=O)N=C2SC=NN12
  -123, 2, 108, 114
FC(F)(F)C1=NC(C(F)(F)F)=NP(N2CCCCC2)(N2CCCCC2)=N1
  -3, 13, 97, 94
N#Cc1ccsc1NC(=O)c1ccc(S(=O)(=O)N2CCOCC2)cc1
  -25, 11, 104, 110
CCn1cc(S(=O)(=O)c2ccccc2)c(=O)c2cc(F)ccc21
  14, 1, 98, 102
O=S(=O)(NN=C1CCCCC1)c1ccccc1
  1, -3, 102, 101
CCCc1nn2c(=O)cc(COc3cccc(NC(=O)c4ccccc4)c3)nc2s1
  15, 2, 101, 102
CCCOC(=O)c1ccc(NCC(=O)Nc2ccc(C)cc2)cc1
  x, 1, 103, 98
CCCCN1C(=O)C2Cc3c([nH]c4ccccc34)CN2C1=S (configuration not stated)
  -29, 14, 76, 181
Cc1c(/C=N\NC(=O)OC(C)(C)C)c2ccccc2n1C
  -24, -2, 103, 100
Cc1cccc(NC(=O)C2C(C)(C)C2(C)C)c1C
  6, -14, 100, 104
CCCCNc1ccccc1C(=O)O
  -1, 106, 97, 105
Cc1nn(C)c(Nc2ccc(Br)cc2)c1Br
  x, -8, 102, 101
CC(C)N(CC(N)=O)C(=O)c1ccccc1Nc1ccc(F)cc1
  -23, -4, 99, 94
CC(=O)Nc1ccc(Cc2ccncc2)cc1
  -31, -4, 99, 103
O=C1CC(SCCO)C(=O)N1c1ccccc1 (configuration not stated)
  -17, -1, 99, 102
O=C(NN1C(=O)c2ccccc2C1=O)C1CC2CCC1C2 (configuration not stated)
  13, -9, 98, 103
CCC(c1nnc(SCC(=O)NCC(C)C)o1)N(C)C (configuration not stated)
  -7, -3, 104, 108

The list continues:
The line under a structure holds: MenB inh, MbtI inh, PV pol inh, PV pol inh intensity
COc1cc(CN(C)Cc2cc3c(cc2O)CCC3)ccc1OC(F)F
  -14, -2, 102, 105
O=C(NCC1CCCO1)C1CC(c2ccccc2O)=NO1 (configuration not stated)
  -26, -2, 104, 108
CCC1(C)Nc2ccccc2-c2nc3ccccc3n21 (configuration not stated)
  1, 103, 99, 105
CCCCOc1ccc2nc3c(nc2c1)C(=O)c1ccccc1C3=O
  -17, -4, 107, 101
Cc1oc(-c2ccc(Cl)cc2)cc1-c1nn2c(-c3ccco3)nnc2s1
  -8, -9, 102, 105
Cc1ccc2[nH]c(=O)c3cc(C(=O)NCCN(C)Cc4ccccc4)sc3c2c1
  -5, 15, 101, 103
CCOC(=O)c1cnn(CCOC(=O)CC)c1NC(=O)CC
  18, -4, 98, 103
N#Cc1c(CN2CCOCC2)cn2ccccc12
  6, 105, 103, 112
COc1ccc(CNc2ncnc3ccccc23)cc1
  4, -7, 96, 97
CN(C(=O)c1cc(-c2ccccc2)n[nH]1)C1CCCCC1
  -6, -8, 100, 104
CN1CC=C2C(C#N)=C(N)C(C#N)(C#N)C(c3ccccc3)C2C1 (configuration not stated)
  -59, 10, 97, 109
CC(C)(Oc1ccc(Cl)cc1)C(=O)OCC(=O)N1CCCc2ccccc21
  x, -7, 99, 103
Cc1nc2c(c(C)c1CCC(=O)NCC1CCN(CC(C)C)C1)c(=O)n(C)c(=O)n2C (configuration not stated)
  -15, 15, 103, 102
COc1ccc(CCNC(=O)c2cc(C)no2)cc1OC
  -3, -10, 100, 103
